VDR inh = Inhibitors of the vitamin D receptor (VDR): qHTS; Vitamin D3 receptor (Homo sapiens), P11473; VDR-SRC2-3 peptide fluorescence polarization, 2 h; Potency, µM, for inactives: max response, negative = inhibition, most hits filed as inhibitors; 400,000 tested, 0.93% active; active means well fitted inhibition curve with a large enough effect; inconclusive means small, poorly fitted or top-dose-only effect, or another doubt; inactive means no such curve, though single readings can be large or run the other way; further: series mostly up to about 120 µM
Target sequence (P11473 whole entry, looked up): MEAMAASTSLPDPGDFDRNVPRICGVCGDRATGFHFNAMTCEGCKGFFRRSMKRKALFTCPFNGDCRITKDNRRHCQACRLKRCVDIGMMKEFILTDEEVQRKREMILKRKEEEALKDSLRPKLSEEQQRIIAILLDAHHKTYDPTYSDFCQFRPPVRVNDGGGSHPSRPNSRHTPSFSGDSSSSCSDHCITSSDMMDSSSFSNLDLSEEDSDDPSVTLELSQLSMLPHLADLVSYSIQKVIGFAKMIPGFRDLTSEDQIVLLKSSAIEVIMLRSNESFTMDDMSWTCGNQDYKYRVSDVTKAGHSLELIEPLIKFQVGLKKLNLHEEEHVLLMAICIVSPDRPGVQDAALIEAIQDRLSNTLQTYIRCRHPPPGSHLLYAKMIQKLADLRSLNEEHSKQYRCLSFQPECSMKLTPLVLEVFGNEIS
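Inhibition of the VDR/SRC2-3 peptide interaction is quantified by fluorescence polarization. Compounds (23 nl, pintool) incubate with the reagents for 2 hours at ambient room temperature.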
Starred values were filed as active, the others as inactive; [ ] = another dose, or the depositor's remark. On the % scale 0 is the no-effect control and ±100 the full control effect; potency means the concentration at half of the fitted maximal effect. Only part of the results is shown; the hit share may differ from the screen's.

`Cc1ccc(-n2nc(CO)c(C(=O)NCC(c3ccccc3)c3ccccc3)n2)cc1` gave VDR inh 12%.
`Cc1ccc(CC(=O)Nc2cccc(C#N)c2)cc1` gave VDR inh -4%.
`COc1ccc(-c2cn(Cc3ccc4ccccc4c3)nn2)cc1` gave VDR inh -11%.
For Clc1cccc(N2CCN(Cc3nc(-c4ccccc4)no3)CC2)c1 the results were VDR inh -8%.
For C[C@H](NS(=O)(=O)c1ccc(F)cc1)C(=O)OCC(=O)c1c(N)n(C)c(=O)n(C)c1=O the results were VDR inh 15%.
Screening C/C(=N/OCO/N=C(/C)c1ccc(F)cc1)c1ccc(F)cc1 returned VDR inh -6%.
For O=C(Nc1cc(S(=O)(=O)N2CCOCC2)ccc1Cl)c1cc([N+](=O)[O-])ccc1Cl the results were VDR inh 0%.
For CCCOC(=O)Nc1ccc(N2CCCCC2)cc1 the results were VDR inh -10%.
`COc1ccc(Cn2c(C)c(C)c(C#N)c2NC(=O)Nc2ccc(Cl)cc2)cc1` gave VDR inh 9%.
For CC(C)CCNC(=O)C1CC2Cn3c(nc4cc(Cl)c(Cl)cc43)C2N1C (stereo not given) the results were VDR inh -11%.
For Cc1ccccc1NCCC(=O)Nc1ccc(F)cc1 the results were VDR inh 5%.
Screening Cc1cccc2cc(CNCC3CCCO3)c(Cl)nc12 (stereo not given) returned VDR inh 4%.
COc1ccc(C(=O)COC(=O)CNC(=O)c2cccs2)cc1Br was read as VDR inh -7%.
Cc1ccc(C(=O)NC(=S)N2CCN(C(=O)OC(C)(C)C)CC2)cc1Br was read as VDR inh 4%.
For CN(C)c1ccc(C(CC(=O)O)NC(=O)c2ccc(Cl)cc2)cc1 (stereo not given) the results were VDR inh -6%.
CCSc1nc2c(c(=O)[nH]c(=O)n2C)n1C was read as VDR inh 6%.
For Cc1ccc(C)c(S(=O)(=O)c2nnn3c2nc(NC2CCCCC2)c2sccc23)c1 the results were VDR inh -3%.
CC(C)n1c(SCC(=O)Nc2ccccc2N2CCOCC2)nc2c1c(=O)n(C)c(=O)n2C was read as VDR inh 4%.
For O=C(Nc1ccccc1Cl)C(Cl)C(=O)c1ccccc1 (stereo not given) the results were VDR inh -11%.
`CC(C)N(C(=O)CSc1nnc(CSc2ncccn2)n1C)C(C)C` gave VDR inh 9%.
Cc1ccccc1CSc1nnc(C)c(=O)n1N was read as VDR inh -21%.
For Cc1c(Cl)c([N+](=O)[O-])nn1CCCC(=O)Nc1sc2c(c1C#N)CCC2 the results were VDR inh inconclusive.
COc1ccccc1C(=O)Nc1ccnn1C1CCN(CCCc2ccccc2)CC1 was read as VDR inh 12%.
`COc1ccc(-c2cc(C(F)(F)F)nc(S(C)(=O)=O)n2)cc1OC` gave VDR inh inconclusive.
Cc1ccc(C(=O)N2C(=O)c3cccc(N)c3C2=O)o1 was read as VDR inh -26%.
For CCOC(=O)c1ccc(NC(=O)Cn2cc(C(=O)C3CC3)c3ccccc32)cc1 the results were VDR inh inconclusive.
Screening CCCCn1nnnc1SCC(=O)NCc1ccccc1 returned VDR inh -6%.
For O=C(CSCc1ccccc1Cl)NNC(=O)c1ccccc1 the results were VDR inh 1%.
`CSc1ccc(C2c3[nH]c4ccccc4c3CCN2C(=O)CCC2CCCC2)cc1` (stereo not given) gave VDR inh 4%.
COc1ccc(/C=C/C(=O)NCc2ccc(F)cc2)cc1S(=O)(=O)N1CCOCC1 was read as VDR inh -5%.
Screening COCCN1C(=O)N(C)[C@@H](c2ccccc2)C(C(C)=O)=C1C returned VDR inh inconclusive.
For COCCN1C(=O)N[C@@H](c2ccc(Br)cc2)C(C(C)=O)=C1C the results were VDR inh 4%.
`COc1ccc(C(=O)NC2CCN(S(=O)(=O)c3ccc(C)cc3)CC2)cc1` gave VDR inh 0%.
Screening Cc1ccc(C(=O)Nc2cc(Cl)ccc2Oc2ccccc2)cc1[N+](=O)[O-] returned VDR inh -1%.
`COc1cc(Cl)c(C)cc1NC(=O)CCc1c(C)nc2cc(-c3cccc(F)c3)nn2c1C` gave VDR inh 8%.
`CCN1CCN(c2ccc(NC(=O)COc3ccccc3Cl)cc2)CC1` gave VDR inh 15%.
`CC/C(C)=N/Nc1nc2c(c(=O)[nH]c(=O)n2C)n1CCc1ccccc1` gave VDR inh 27%.
Screening CN(C)c1ccc(/C=N/Nc2ccc(-n3ccnc3)nn2)cc1 returned VDR inh -13%.
O=C(Nc1nonc1NC(=O)C1CCCCC1)C1CCCCC1 was read as VDR inh 12%.
For COc1ccccc1/C=C1\SC(=S)N(C(C(=O)O)c2ccccc2)C1=O (stereo not given) the results were VDR inh -2%.
Cc1ccc(NC(=O)CSc2nc3c([nH]c4ccccc43)c(=O)n2C)cc1 was read as VDR inh -27%.
`CCN(CC)C(=O)CSc1ccc(C(F)(F)F)cc1[N+](=O)[O-]` gave VDR inh -5%.
Screening CCc1ccc(OCC(=O)NCC(c2ccc(Cl)cc2)N2CCCCC2)cc1 (stereo not given) returned VDR inh -17%.
For COc1ccccc1CNC(=O)COC(=O)c1cc(C)nc2ccccc12 the results were VDR inh -11%.
`CC(C)c1ccc(N(CC(=O)NCc2ccc(F)cc2)C(=O)c2snc(C(N)=O)c2N)cc1` gave VDR inh 5%.
For COc1cc(/C=C2\SC(=Nc3ccccc3OC)NC2=O)ccc1O the results were VDR inh 1%.
For Cc1nnc(NC(=O)CSc2nnc(-c3ccco3)o2)s1 the results were VDR inh 18%.
`COc1cc(/C=N/NC(=O)CNC(=O)c2ccncc2)ccc1O` gave VDR inh -2%.
Screening CCOc1ccc(NC(=O)Nc2ccc3snnc3c2)cc1 returned VDR inh 13%.
CCOC(=O)N1CCN(Cc2cc(=O)oc3ccc4ccccc4c23)CC1 was read as VDR inh 7%.
For CCN(CC)C(=O)CCCSc1nnc(Nc2ccccc2F)s1 the results were VDR inh -3%.
Screening COc1cccc(N(CC(=O)Nc2ccccc2C)S(C)(=O)=O)c1 returned VDR inh -1%.
`O=C(OCn1nnc2ccccc2c1=O)c1cccc(S(=O)(=O)N2CCOCC2)c1` gave VDR inh -5%.
Screening COc1ccc(OC)c(NC(=O)Cn2c(CCC(=O)O)ccc2-c2ccc(C)cc2)c1 returned VDR inh -23%.
For CC(C)C[C@H](N)c1cn([C@@H](Cc2cc3ccccc3[nH]2)C(=O)N2CCNCC2)nn1 the results were VDR inh -3%.
Screening O=C(N/N=C\C=C\c1ccco1)C1COc2ccccc2O1 (stereo not given) returned VDR inh -8%.
CC(C)NC(=O)C1(O)c2ccccc2NC(=O)N1c1ccc(Cl)c(Cl)c1 (stereo not given) was read as VDR inh 8%.
For COc1ccc(C2C(C(=O)Nc3cc(OC)c(OC)c(OC)c3)c3ccccc3C(=O)N2C)cc1 (stereo not given) the results were VDR inh 0%.
For CCOc1cccc2cc(-c3cn4c(n3)sc3ccccc34)c(=O)oc12 the results were VDR inh 7%.
For COc1ccc(OC)c(NC(=O)c2cccc(NC(=O)c3ccccc3)c2)c1 the results were VDR inh 23%.
For CN(C)c1ccc(CN(Cc2ccco2)C(=O)c2ccc(C(C)(C)C)cc2)cc1 the results were VDR inh 12%.
CN(C)S(=O)(=O)c1cccc(NC(=S)NNC(=O)c2cc3ccccc3cc2O)c1 was read as VDR inh -3%.
Screening COc1ccc(N2CCN(C(c3ccco3)c3sc4nc(C)nn4c3O)CC2)cc1 (stereo not given) returned VDR inh -6%.
COc1ccc(N(CC(=O)N/N=C/c2ccc(-c3ccc([N+](=O)[O-])cc3)o2)S(=O)(=O)c2ccc(C)cc2)cc1Cl was read as VDR inh 4%.
O=C(COC(=O)Cn1cnc2ccccc2c1=O)Nc1ccc(Cl)cc1 was read as VDR inh 18%.
For CN(C)C(=O)c1ccc(-c2ccc3ncnc(NCc4cccnc4)c3c2)cc1 the results were VDR inh 8%.
Screening COc1ccccc1-c1nc2s/c(=C\c3cccs3)c(=O)n2n1 returned VDR inh -15%.
Screening COC(=O)c1cccc(NC(=O)C23CC4CC(C2)CC(n2cncn2)(C4)C3)c1 returned VDR inh 4%.
Screening Nc1ccc(C(=O)OCC(=O)Nc2cc([N+](=O)[O-])ccc2F)cc1 returned VDR inh -15%.
For Cc1ccc(N/C(N)=N/c2nc(C)cc(N3CCCCC3)n2)c(C)c1 the results were VDR inh 3%.
O=C(NCCc1c[nH]c2ccccc12)C(=O)NCC1OCCCN1S(=O)(=O)c1cccs1 (stereo not given) was read as VDR inh -9%.
For O=C(Nc1ccccc1)C(=O)c1cn(CC(=O)N2CCCCC2)c2ccccc12 the results were VDR inh -7%.
Screening CC(C)(C)c1cccc(S(=O)(=O)N2CCN(c3nc(-c4cccs4)nc4ccccc34)CC2)c1 returned VDR inh -20%.
For Cc1cc(OCC(=O)O/N=C(\N)Cc2cccs2)ccc1Br the results were VDR inh -8%.
O=C(CCN1C(=O)COc2ccccc21)NCCN1CCOCC1 was read as VDR inh 32%[activator].
`Cc1ccc(-n2ncc3c(N4CCN(C)CC4)ncnc32)cc1Cl` gave VDR inh 20%.
Screening CC1CCC/C(=N\NC(=O)c2ccncc2)C1 (stereo not given) returned VDR inh -10%.
`COc1ccccc1CNc1ccc(C(=O)O)cc1` gave VDR inh -12%.
For COCCOC(=O)C1=C(C)NC(=O)NC1C1CC=CCC1 (stereo not given) the results were VDR inh 2%.
For CCOC(=O)c1cccc(NC(=O)c2ccc3snnc3c2)c1 the results were VDR inh 23%.
Screening Cc1cc(NS(=O)(=O)c2ccc(NC(=S)NC(=O)/C=C/c3ccccc3)cc2)no1 returned VDR inh 16%.
`CCOC(=O)c1cnn(-c2ccccc2)c1NC(=O)CCl` gave VDR inh -5%.
For Cc1ccccc1-c1ccc(=O)n(CC(=O)Nc2ccc(C(=O)N3CCCC3)cc2)n1 the results were VDR inh -5%.
O=C(Cn1c(=O)nc(-c2ccccc2)c2ccccc21)NCCc1ccc(Cl)cc1 was read as VDR inh -3%.
`CC(C)C(=O)Nc1c2c(nc3c1CCC3)CCCC2` gave VDR inh -4%.
COc1cccc(C(=O)N2CCN(Cc3cc(Br)ccc3OC)CC2)c1 was read as VDR inh -17%.
For NS(=O)(=O)c1ccc(CNC(=O)Cc2cccs2)cc1 the results were VDR inh -4%.
For COc1ccc(CNC(=O)C2CCN(S(C)(=O)=O)CC2)c(OC)c1 the results were VDR inh -14%.
For CCN(CC)S(=O)(=O)c1ccc(C)c(NC(=O)CN2C(=O)NC3(CCCC3)C2=O)c1 the results were VDR inh -3%.
`COc1ccccc1CNC(=O)CCn1c(=O)c2cccn2c2cccnc21` gave VDR inh 2%.

An excerpt from above in order of length of the SMILES, smallest number first.
`COc1ccccc1CNc1ccc(C(=O)O)cc1` gave VDR inh -12%.
Screening CC1CCC/C(=N\NC(=O)c2ccncc2)C1 (stereo not given) returned VDR inh -10%.
`CC(C)C(=O)Nc1c2c(nc3c1CCC3)CCCC2` gave VDR inh -4%.
For NS(=O)(=O)c1ccc(CNC(=O)Cc2cccs2)cc1 the results were VDR inh -4%.
O=C(CCN1C(=O)COc2ccccc21)NCCN1CCOCC1 was read as VDR inh 32%[activator].
For CCOC(=O)c1cccc(NC(=O)c2ccc3snnc3c2)c1 the results were VDR inh 23%.
`Cc1ccc(-n2ncc3c(N4CCN(C)CC4)ncnc32)cc1Cl` gave VDR inh 20%.
`COc1ccccc1CNC(=O)CCn1c(=O)c2cccn2c2cccnc21` gave VDR inh 2%.
For COc1ccc(CNC(=O)C2CCN(S(C)(=O)=O)CC2)c(OC)c1 the results were VDR inh -14%.
For Cc1ccc(N/C(N)=N/c2nc(C)cc(N3CCCCC3)n2)c(C)c1 the results were VDR inh 3%.
For O=C(Nc1ccccc1)C(=O)c1cn(CC(=O)N2CCCCC2)c2ccccc12 the results were VDR inh -7%.
O=C(Cn1c(=O)nc(-c2ccccc2)c2ccccc21)NCCc1ccc(Cl)cc1 was read as VDR inh -3%.
For Cc1ccccc1-c1ccc(=O)n(CC(=O)Nc2ccc(C(=O)N3CCCC3)cc2)n1 the results were VDR inh -5%.
Screening Cc1cc(NS(=O)(=O)c2ccc(NC(=S)NC(=O)/C=C/c3ccccc3)cc2)no1 returned VDR inh 16%.
For CCN(CC)S(=O)(=O)c1ccc(C)c(NC(=O)CN2C(=O)NC3(CCCC3)C2=O)c1 the results were VDR inh -3%.
Screening CC(C)(C)c1cccc(S(=O)(=O)N2CCN(c3nc(-c4cccs4)nc4ccccc34)CC2)c1 returned VDR inh -20%.

Other entries:
Cc1cc(NC(=O)CSc2nccn2-c2cccc(C)c2C)no1 was read as VDR inh -13%.
For Cc1ccc(CN(C)C(=O)CCc2nc3sc4c(c3c(=O)[nH]2)CCCC4)o1 the results were VDR inh inconclusive.
Screening CC1(C)Cc2c(sc3[nH]c(=S)[nH]c(=O)c23)CO1 returned VDR inh 5%.
Screening COc1ccc(C(=O)CC(=O)C(=O)Nc2cc(OC)c(OC)c(OC)c2)cc1 returned VDR inh 2%.
`Cc1ccc(CN2C(=O)CN(C3CCC(C)CC3)C(=O)C2c2ccc(F)cc2)cc1` (stereo not given) gave VDR inh 4%.
`O=C(OCc1nnc(-c2ccccc2)o1)c1ccc2c(c1)OCCO2` gave VDR inh -10%.
Screening COc1cccc(/C=C2\SC(=S)N(CCC(=O)N3CCCCC3)C2=O)c1 returned VDR inh -15%.
Screening N/C(CS(=O)(=O)c1ccccc1)=N\OC(=O)c1ccc(F)cc1 returned VDR inh 16%.
Screening O=C(NCc1cn2ccsc2n1)Nc1ccc(Cl)cc1 returned VDR inh -12%.
Screening Cc1ccc(S(=O)(=O)N(CCC(=O)NCc2ccc(S(N)(=O)=O)cc2)c2ccccc2)cc1 returned VDR inh -11%.
Screening CCOC(=O)C1(CC2CC2)CCN(C(=O)c2ocnc2C)CC1 returned VDR inh -9%.
